CSC inhib: cancer stem cell inhibition; cancer stem cell-like cells viability, luminescence; 1.1% of 300,000 active; AID 2717; inhibition, % at 7.5 µM;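 active = mean at 75% or more and at least half the replicates too; inconclusive = mean and replicates disagree; tested in HMLE shEcad cells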;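 also: 0% = median of negative and 100% = median of positive control wells; the first replicate is given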
PABP polyA inh: blocks human PABP binding to poly(A) RNA; P11940; inhibition, % at 35 µM; AID 2014; 1% of 290,000 active; fluorescence polarization;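 active = 50% or more with normal probe brightness, or confirmed in later tests; inconclusive = above 50% with abnormal brightness, or retests that disagree; inactive = below 50% or failed in later tests; about a fifth of its hits are not listed in these tables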;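 also: calls also rest on retests at 20 µM and on dose response follow-up; controls were probe without protein and protein plus probe with vehicle; some compounds called inactive have numbers as strong as hits; many hits fall short of the cut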
Target sequence (P11940 whole entry, looked up): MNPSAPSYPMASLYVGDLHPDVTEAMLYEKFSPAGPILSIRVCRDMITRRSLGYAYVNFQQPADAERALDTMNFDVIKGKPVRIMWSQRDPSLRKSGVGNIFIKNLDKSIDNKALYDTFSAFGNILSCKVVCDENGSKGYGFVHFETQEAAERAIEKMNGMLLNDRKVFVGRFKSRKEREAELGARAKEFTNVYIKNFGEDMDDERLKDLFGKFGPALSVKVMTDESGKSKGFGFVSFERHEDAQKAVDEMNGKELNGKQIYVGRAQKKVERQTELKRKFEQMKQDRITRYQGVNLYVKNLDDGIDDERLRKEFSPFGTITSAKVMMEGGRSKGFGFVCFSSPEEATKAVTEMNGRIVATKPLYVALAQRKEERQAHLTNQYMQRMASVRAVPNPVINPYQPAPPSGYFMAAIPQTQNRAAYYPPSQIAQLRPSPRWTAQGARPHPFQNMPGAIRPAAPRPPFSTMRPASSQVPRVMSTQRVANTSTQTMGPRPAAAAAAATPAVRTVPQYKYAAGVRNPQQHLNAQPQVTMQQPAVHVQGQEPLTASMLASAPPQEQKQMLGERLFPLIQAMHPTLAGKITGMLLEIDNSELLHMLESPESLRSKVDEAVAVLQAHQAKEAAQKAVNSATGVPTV
HIV Env fusion: HIV envelope-mediated fusion inhibition | HeLa-JRFL Env/CEM21 cell fusion, luciferase | inhibition, % at 12.3 µM | 1.1% of 360,000 active | AID 651610;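 active = mean replicate inhibition score of at least 50 and every replicate individually at or above 50; inconclusive = only one of the two criteria met; inactive = mean below 50 and not all replicates reaching 50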;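 also: 0% = plate neutral controls and 100% = maraviroc near 300 nM; one replicate is shown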
Yeast UUG start: alters start codon recognition fidelity in yeast; S. cerevisiae UUG-firefly luciferase reporter, luminescence/redox ratio; 0.13% of 350,000 active; activity score, % at 18.7 µM;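 active = replicate mean at a twofold rise or more, about +100% in these data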;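 also: firefly luciferase made from a UUG start codon reports start codon fidelity; reporter light over untreated wells divided by growth signal over untreated wells; some hits fall short of that in this replicate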
eIF4H FP inh: inhibitors of RNA binding by human eIF4H; Q15056; eIF4H fluorescence polarization binding assay; inhibition, % at 35 µM; 0.94% of 290,000 active; AID 2012;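 active = 50% or more with normal probe brightness, or confirmed in later tests; inconclusive = above 50% with abnormal brightness, or retests that disagree; inactive = below 50% or failed in later tests; about a fifth of its hits are not listed in these tables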;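 also: calls also rest on retests at 20 µM and on dose response follow-up; 0% = protein and probe with vehicle and 100% = probe without protein; strong numbers were not always called active; many hits fall short of the cut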
Rce1 inh: inhibitors of yeast Ras-converting enzyme; AID 2563; 0.27% of 290,000 active; Q03530; yeast membranes, quenched prenylated peptide cleavage fluorescence; calls only;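 active = fall in fluorescence gain of 50% or more versus controls, with final raw signal at or below 3038400; inconclusive = same 50% fall but final raw signal above 3038400; inactive = fall in fluorescence gain under 50%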;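 also: plate controls were neutral control wells for no effect and wells lacking membranes for full effect; tested at 10 µM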
MT1-MMP act inh: MT1-MMP (human) activation inhibition. 0.061% of 360,000 active. HT1080 RFP-PRO-GFP cells, GFP/RFP ratio fluorescence, overnight; percent of plate control window, DMSO zero. GFP/RFP ratio change, % at 20 µM. P50281;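 active = GFP/RFP ratio change of at least 30% with cell ATP level not reduced by more than half and red fluorescence within 50% of control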; also: strong numbers were not always called active
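Assay system: HT1080 RFP-PRO-GFP cells | Dosing: 20 µM single dose, 1% DMSO | Incubation: Cells overnight before dosing, compound overnight, 37 °C, 5% CO2 | Evaluation: GFP/RFP fluorescence ratio | Control set: DMSO-only wells and HT1080 RFP-L50D-GFP cell wells as references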
MT1-MMP act inh RFP: second read-out of MT1-MMP act inh, no call of its own (marks repeat the call); RFP signal change, %; measured here: RFP expression control read;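 0 = vehicle wells; hits needed this value within 50% of zero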
Starred values were filed as active, the others as inactive; i = inactive; ? = inconclusive; . = not tested or not shown; & = joins results of further samples. A portion of the library, so the mix of outcomes need not match the whole.

structure	MT1-MMP act inh RFP	Yeast UUG start	Rce1 inh	PABP polyA inh	eIF4H FP inh	CSC inhib	MT1-MMP act inh	HIV Env fusion
CC(=O)NCCC(=O)N1CCCC(CNC(=O)c2ccc(-c3ccccc3)cc2)C1 (stereo not drawn)	-1	.	i	2	-9	-14	-5	3
Cc1ccc(S(N)(=O)=O)c(C)c1-n1cnnn1	6	.	i	-8	-8	-8	0	-5
CC(C)(C)n1nnnc1C(c1ccncc1)N(Cc1ccccc1)Cc1ccco1 (stereo not drawn)	-4	-3	i	20	7	-14	-5	?
CCCCNC1=C(Br)C(=O)CC(C)(C)C1	-4	-15	i	8	-7	-8	2	.
COc1ccccc1-n1cc(CN2CCCC(CO)(Cc3cccc(Cl)c3)C2)cn1 (stereo not drawn)	-3	-9	i	1	0	24	-3	25
CCCC(=O)NCCc1nc2cc([N+](=O)[O-])ccc2n1C	-5	.	i	-11	-12	-5	11	-5
C=CCSc1nccc(-c2nn(-c3ccc(C)cc3)ccc2=O)n1	-11	.	i	-3	-15	-7	-3	.
CCOC(=O)CCCNC(=O)COC(=O)c1cc(C)cc(C)c1	-4	18	i	6	-2	-6	-4	.
CN(C)C(CNC(=O)c1cccc(C(F)(F)F)c1)c1ccco1 (stereo not drawn)	5	-16	i	-1	3	.	2	11
CC1CCN(C(=O)COC(=O)c2cc3ccccc3oc2=O)CC1	-2	-12	.	.	.	0	6	-65
CCC(=O)N1CCN(c2nc(C)nc3sc(C)c(C)c23)CC1	-3	3	i	5	-2	-4	-4	.
Cc1cc(C)nc(SCC(=O)Nc2ccnc3ccccc23)n1	-30	.	i	12	-6	11	-3	6
O=C(Cc1ccc(NC2=NC3CS(=O)(=O)CC3S2)cc1)NCc1ccc(Cl)cc1 (stereo not drawn)	3	-21	i	10	6	.	4	21
C=CC[C@]12C=C(OC)C(=O)C(OC)=C1O[C@@H](c1ccc3c(c1)OCO3)[C@H]2C	-1	-22	i	.	.	-11	-5	.
CC1CN(S(=O)(=O)c2cccc(C(F)(F)F)c2)C(C)N1C(=O)N1CCOCC1 (stereo not drawn)	6	-8	i	1	-17	-11	2	-3
COC(=O)[C@H](C)N1C/C=C\COc2c(Cl)cc(Cl)cc2S1(=O)=O	2	-6	.	.	.	.	1	-27
NC1=NC(=O)C(Cc2cc(Cl)ccc2Cl)S1 (stereo not drawn)	9	-12	i	3	8	-10	6	2
COc1ccc(OCC(Cn2cnc3ccccc32)OC(C)=O)cc1 (stereo not drawn)	-6	.	i	-1	-2	-7	1	-7
NC(=O)C1CC(=O)N(c2ccc(OCc3c(Cl)cccc3Cl)cc2)C1 (stereo not drawn)	1	1	.	5	0	-14	2	10
CCOC(=O)c1c(NC(C)=O)no[n+]1[O-]	-2	4	i	?	-2	-14	-5	.
OCC(CO)(CO)N=Cc1cc(Br)ccc1O	-1	3	i	-1	-4	11	1	.
O=C(C1CCC(=O)N(C2CCCC2)C1)N1CCC(Oc2cccc(F)c2)CC1 (stereo not drawn)	-10	2	i	-10	0	10	-1	3
CCn1c(SCC(=O)n2nc(C)cc2C)nnc1-c1ccc2c(c1)OCO2	1	-18	i	5	-8	0	1	-17
COc1ccc(-n2nc3cc(C)c(NC(=S)NC(=O)c4ccccc4C)cc3n2)cc1	-4	-11	i	-1	5	-3	2	-78
CCOC(=O)c1ccc(NC(=O)c2ccc3c(c2)C(=O)N(Cc2cccnc2)C3=O)cc1	-7	-13	i	-2	-4	3	-5	21
CCN(CC)C(=O)CCCc1c[nH]c2ccccc12	2	.	i	0	-7	-14	-1	-12
Cc1nn(C)c(C(=O)NNC(=S)NCc2ccccc2)c1Cl	2	-29	i	2	4	.	-3	.
Cc1ccc(N2CC(C(=O)NCc3cccs3)CC2=O)cc1 (stereo not drawn)	2	-13	i	-5	4	-14	2	-12
CCOC(=O)c1cnc2ccc(C)cc2c1N(C)Cc1ccccc1	-7	5	i	-5	-18	10	-7	-5
Cn1c(=O)c2c(nc(OCc3ccc4c(c3)OCO4)n2Cc2ccccc2Cl)n(C)c1=O	-3	-9	i	-11	-15	-15	-4	.

(cont.)
structure	MT1-MMP act inh RFP	Yeast UUG start	Rce1 inh	PABP polyA inh	eIF4H FP inh	CSC inhib	MT1-MMP act inh	HIV Env fusion
COc1ccc(C(=O)Nc2ccc(NC(=O)c3ccccc3F)cn2)cc1	3	.	i	14	-8	-7	6	5
COc1ccc(S(=O)(=O)N(C)C[C@H]2Oc3cc(Br)ccc3S(=O)(=O)N([C@H](C)CO)C[C@H]2C)cc1	-5	-12&2	.	.	.	.	-3	?
CC(C)n1cc(CN2CCCC(CO)(Cc3cccc(Cl)c3)C2)cn1 (stereo not drawn)	0	-15	i	-4	0	9	3	16
CCCS(=O)(=O)NC(=O)C1(C)CCN(C(=O)c2ccc(F)c(C)c2)C1 (stereo not drawn)	9	-42	.	.	.	.	-1	15
Cc1nn(CC(=O)N2CCN(c3ccccc3)CC2)c(C)c1[N+](=O)[O-]	0	5	.	2	-8	-10	0	6
Oc1oc(-c2ccccc2)nc1/C=N/c1ccccn1	7	-9	i	3	-1	6	6	2
COc1ncccc1C(=O)N1CCCC(C(=O)c2cccc(OC(C)C)c2)C1 (stereo not drawn)	-3	.	i	0	-3	3	-2	13
Cc1ccc(S(=O)(=O)N2CCN(c3ccc(S(=O)(=O)N4CCOCC4)cn3)CC2)cc1	7	-5	i	-8	-2	55	3	.
COCCCn1c(=N)c(C(N)=S)cc2c(=O)n3cccc(C)c3nc21	-5	-9	i	.	.	1	-15	-27
COCCNc1nc2cc(-c3ccc(F)cc3)sc2c(=O)n1C	4	0	.	.	.	.	6	2
O=C(CSCc1c(Cl)cccc1Cl)Nc1ccccc1C(=O)N1CCOCC1	2	2	i	4	-8	-12	0	.
COc1ccccc1NC(=O)N1CCn2c(nc3ccccc32)C1	3	-1	i	-8	-6	-13	4	22
Cc1ccc(S(=O)(=O)CC(=O)c2cc3cccc(C)c3oc2=O)cc1	4	-12	i	-6	-7	10	-3	0
COc1ccc(-c2csc(-n3ncc(C(=O)O)c3C(F)(F)F)n2)cc1	2	-15	i	15	-5	-12	1	-9
C=Cc1ccc(CC2(C)C(=O)Nc3ccc(-c4cccnc4)cc32)cc1 (stereo not drawn)	-12	-18	.	.	.	.	-16	41
CCC1COCCS(=O)(=O)N1Cc1cccc(Cl)c1 (stereo not drawn)	0	-20	i	8	9	-6	1	-24
CCc1nc2c(OCC3COc4ccccc4O3)cccn2c1N(C)C(=O)c1cccc(OC)c1 (stereo not drawn)	-3	7	.	.	.	.	-6	6
COc1ccc(N2CCN(C(=O)Cc3ccc(Cl)cc3)CC2)cc1	-2	-4	i	10	-12	-5	6	-11
COc1cc2c(cc1OC)CN(C(=O)C1CCC(=O)N(CCCN3CCOCC3)C1)CC2 (stereo not drawn)	2	-8	i	8	0	-9	2	-7
Cc1ccc(NC(=O)c2cccc(C(=O)Nc3ccc(C)c(C)c3)n2)cc1C	-3	-10	i	-10	7	3	2	-41
Cc1ccc(NC(=S)NCc2ccc3c(c2)OCO3)cc1	-3	-37	i	4	-10	-8	-2	13
C=CCc1ccc(OCCOCCOc2cccc3cccnc23)c(OC)c1	0	.	i	1	3	3	0	22
CCOc1ccc2nc3sc(C(=O)N4CCOCC4)c(N)c3cc2c1	1	-1	i	6	-6	-8	-2	4
Cc1cccc(/C(N)=N/OC(=O)CCCc2ccccc2)c1	1	-26	i	-1	-13	.	-4	-10
O=C(CCCNS(=O)(=O)c1ccc(F)cc1)Nc1ccc(F)cc1	-1	-7	i	0	-1	34	0	-5
Nc1nnc(-c2ccccc2[N+](=O)[O-])o1	6	-27	i	12	49	-11	6	-10
CCOc1cc(C(=O)N2CCN(c3ccccc3)CC2)cc(OCC)c1OCC	-3	-16	i	-12	1	-3	2	.
Cc1noc(NS(=O)(=O)c2ccc(NC(=O)/C=C/c3ccccc3)cc2)c1C	1	-11	.	.	.	-16	4	-2
CCOC(=O)c1ccc(NC(=O)NCc2ccccc2OC)cc1	-3	-16	i	8	4	-5	-4	22
CCOc1ccc(-c2nc(CSc3nnc(C)s3)cs2)cc1OC	5	-7	i	2	15	9	-2	.

(more compounds)
structure	MT1-MMP act inh RFP	Yeast UUG start	Rce1 inh	PABP polyA inh	eIF4H FP inh	CSC inhib	MT1-MMP act inh	HIV Env fusion
CCn1c(=O)cc(SCC(=O)Nc2ccc(C)cn2)c2ccccc21	8	.	i	2	0	64	3	-233
NC(=O)Nc1ccccc1C(=O)Nc1ccc2ccccc2c1	-5	17	i	-4	-5	-12	-4	-2
Cc1ccc(OCc2nnc(NC(=O)c3ccco3)s2)cc1	7	-10	i	-1	-4	-1	0	.
COc1ccc2c(c1)C(=O)c1ccccc1CO2	7	-9	i	18	9	.	-1	.
Nc1c(S(=O)(=O)c2cccs2)c2nc3ccccc3nc2n1CC1CCCO1 (stereo not drawn)	-1	.	.	7	-4	-10	5	.
COC(=O)c1c(NC(=O)C2COc3ccccc3O2)sc2c1CCN(C(C)=O)C2 (stereo not drawn)	-7	.	i	2	7	7	4	-26
C=CCn1c(CCC)nc2ccccc21	1	.	i	0	-12	-13	-1	11
Cc1cccn2c(=O)c3cc(C(=O)NC4CCCCC4C)n(C)c3nc12 (stereo not drawn)	-1	-4	i	2	-8	10	4	-6
N=c1c2c3c(sc2ncn1CCN1CCOCC1)CCCCC3	-4	-1	i	-2	-5	-2	-5	-4
CCCc1ccc(S(=O)(=O)N2CCN(Cc3ccco3)CC2)cc1	-1	-14	i	4	0	8	-2	10
COc1ccc(OC)c(NC(=O)CN(Cc2ccc(F)cc2)C2CCCCC2)c1	-30	-3	i	12	-16	23	-14	19
CC(C)OC(=O)CSc1nnc(Cc2ccccc2)n1C	7	4	i	4	-2	.	10	-13
Cc1cc(NC(=O)CSc2nc3c(C)cccc3cc2C)no1	1	-6	i	-6	6	.	0	-10
CCCCn1c(NCc2ccc(N(C)C)cc2)nc2ccccc21	-1	-9	i	-10	0	14	-5	2
